Source: PubChem (National Center for Advancing Translational Sciences (NCATS))
RE007 growth inh: less growth of the S. pombe RE007 Vpr strain. S. pombe RE007 Vpr strain, BacTiter-Glo ATP luminescence, 24 h; control for the full effect not named in the record. Potency, µM (series often up to 92.2 µM), for inactives: top-dose activity change, negative = less growth. 360,000 compounds, 0.21% hits; active = well fitted falling curve with a large enough effect; inconclusive = small, poorly fitted or top-dose-only effect; inactive = no such curve, though single readings can be large or run the other way;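 further: on the % scale 0 is the no-effect control and ±100 the full control effect; nearly all actives have a fitted effect of over 50% in size; the assay follows cell death caused by Vpr and the record does not say whether a fall means rescue or toxicity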
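Fission yeast strain RE007, carrying one chromosomally integrated HIV-1 vpr copy, was seeded at OD 0.01 in PMG+AL medium with 23 nL pinned compound. After 24 h at 30 °C and 99% humidity, viability was read by BacTiter-Glo luminescence.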
NS1 inh: inhibitors of influenza NS1 protein function; S. cerevisiae slowed by influenza A NS1, growth recovery by OD600; 270,000 compounds, 0.4% hits; Potency, µM (highest dose often 46.1 µM), for the others: at the highest dose activity, positive = more growth; AID 2326; further: actives are rising curves; nearly all actives have a fitted effect of over 50% in size
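S. cerevisiae expressing influenza A NS1, grown in glucose, washed, then diluted 1:100 into pH 6.0 -URA galactose medium with 23 nl compound. Growth recovery read as OD600; NS1-free strain serves as control.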
Cruzain inh Det: inhibitors of Trypanosoma cruzi cruzain with detergent | purified cruzain, Z-FR-AMC fluorescence, 0.01% Triton | Potency, µM, for inactives: max response, negative = inhibition, hits mostly inhibitors | 200,000 compounds, 0.43% hits | AID 1478; active means well fitted curve in the direction sought with a large enough effect; inconclusive means small, poorly fitted or top-dose-only effect, or another doubt; inactive means no such curve, though single readings can be large; an effect the other way counts as inactive or inconclusive;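 further: plate controls were neutral wells for no effect and buffer without enzyme for full effect; nearly all actives have a fitted effect of over 40% in size; top concentration of the series not given in the record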
Target sequence (P25779 123-467 limits assumed): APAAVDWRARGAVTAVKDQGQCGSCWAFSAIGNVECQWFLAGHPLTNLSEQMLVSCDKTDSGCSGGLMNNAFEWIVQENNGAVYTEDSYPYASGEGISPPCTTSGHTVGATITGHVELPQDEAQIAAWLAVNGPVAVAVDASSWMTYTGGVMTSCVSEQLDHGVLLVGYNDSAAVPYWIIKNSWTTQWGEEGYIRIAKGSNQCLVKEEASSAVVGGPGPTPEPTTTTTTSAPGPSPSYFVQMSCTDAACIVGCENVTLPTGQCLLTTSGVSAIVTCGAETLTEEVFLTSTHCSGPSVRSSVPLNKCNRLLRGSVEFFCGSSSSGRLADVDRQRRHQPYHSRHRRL
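Cruzain (1.5 nM) preincubated 15 min at RT with compound in 100 mM sodium acetate pH 5.5, 5 mM DTT, 0.01% Triton X-100. Reaction started with 2 uM Z-FR-AMC; AMC fluorescence (ex 360/em 450 nm) change over 60 s gave rate.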
Lassa entry inh: blocks Lassa virus binding to or entry into cells; Lassa virus pseudotype entry inhibition, cell reporter; control for the full effect not named in the record; Potency, µM (series often up to 37.9 µM), for inactives: at the top dose activity change, negative = inhibition, usual class: inhibitors; 300,000 compounds, 1.2% hits; active means well fitted inhibition curve with a large enough effect; inconclusive means small, poorly fitted or top-dose-only effect, or effect the other way; inactive means flat fitted curve, though single readings scatter; tested in HEK293 cells; further: on the % scale 0 is the no-effect control and ±100 the full control effect; nearly all actives have a fitted effect of over 50% in size; luciferase read-out
MARV entry inh: Marburg virus entry inhibition; Marburg virus pseudotyped entry inhibition, cell reporter; control for the full effect not named in the record; about a third of the inactives were read at about 46 µM; Potency, µM (titrated, usually from 37.8 µM), without a hit: at the highest dose activity change, negative = inhibition, hits mostly inhibitors; 300,000 compounds, 1.8% hits; active = well fitted inhibition curve with a large enough effect; inconclusive = small, poorly fitted or top-dose-only effect, or effect the other way; inactive = flat fitted curve, though single readings scatter; tested in HEK293 cells; about a fifth of its hits are not listed in these tables; further: on the % scale 0 is the no-effect control and ±100 the full control effect; luciferase read-out
StopGo reporter: lowers the luciferase signal of an FMDV 2A StopGo reporter | human cells with a luciferase reporter of 2A StopGo recoding; control for the full effect not named in the record | Potency, µM (titrated, usually from 57.9 µM), for the others: at the highest dose signal change, negative = less light | 410,000 compounds, 1.2% hits | AID 1159524; active = well fitted falling curve with a large enough effect; inconclusive = small, poorly fitted or top-dose-only effect; inactive = no such curve, though single readings can be large or run the other way; tested in HEK293T cells; further: on the % scale 0 is the no-effect control and ±100 the full control effect; nearly all actives have a fitted effect of over 45% in size; luciferase light after 4 h
SARS PLP yeast: blocks SARS-CoV papain-like protease in a yeast assay; Potency, µM (titrated, usually from 32.9 µM), without a hit: top-dose activity, positive = growth rescue; AID 485353; S. cerevisiae expressing SARS-CoV PLpro, growth rescue; control for the full effect not named in the record; 330,000 compounds, 0.19% hits; further: 0% is about no effect; nearly all actives have a fitted effect of over 55% in size; growth read by luminescence after 48 h
Cruzain noTriton: inhibitors of Trypanosoma cruzi cruzain without detergent | P25779 | purified cruzain, Z-FR-AMC fluorescence, no detergent | Potency, µM, for the others: max response, negative = inhibition, hits mostly inhibitors | 200,000 compounds, 2.3% hits; active means well fitted curve in the direction sought with a large enough effect; inconclusive means small, poorly fitted or top-dose-only effect, or another doubt; inactive means no such curve, though single readings can be large; an effect the other way counts as inactive or inconclusive;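 further: plate controls were enzyme without inhibitor for no effect and buffer without enzyme for full effect; nearly all actives have a fitted effect of over 40% in size; top concentration of the series not given in the record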
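Detergent-free condition (0.00005% Triton X-100) in acetate buffer pH 5.5 with DTT. 1.5 nM enzyme and compound were pre-mixed 15 min, then 2 uM Z-FR-AMC substrate added; reaction progress from fluorescence change between first and third reads (60 s).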
Active calls of the source: *; ? = inconclusive; . = no result given; & = joins results of further samples; [ ] = remark or other dose. Unless noted, the call rests on the fitted dose curve; in most records, active means well fitted rising curve with a large enough effect; inconclusive means small, poorly fitted or top-dose-only effect; inactive means no such curve, though single readings can be large or run the other way. Potency means the concentration at half of the fitted maximal effect.

SMILES	RE007 growth inh	NS1 inh	Cruzain inh Det	Lassa entry inh	MARV entry inh	StopGo reporter	SARS PLP yeast	Cruzain noTriton
CC1CC(NS(=O)(=O)c2cc3c4c(c2)CCN4C(=O)CC3)CC(C)(C)C1 (centres undefined)	5%	.	.	-4%	?	58%[activator]	-3%	.
COC(=O)C1C2CC(=O)C(C2)C1C(=O)OC (centres undefined)	14%	.	.	-3%[46.1 µM]	?	-19%	.	.
Cc1ccc(Nc2c(F)c(F)c(F)c(F)c2C(=O)O)cc1	-10%	.	.	3%[46.1 µM]	8%[46.1 µM]	-23%	2%	.
O=C(Nc1cccc([N+](=O)[O-])c1)C1CC(=O)N(C2CCCCC2)C1 (centres undefined)	-11%	5%	.	-22%	-4%[14.2 µM]	30%[activator]	1%	.
O=S(=O)(c1ccc(-n2cnnn2)cc1)N1CCNCC1	7%	4%	.	.	.	-4%	-3%	.
CSc1ccccc1C(=O)NC1CCCN(Cc2ccccc2F)C1 (centres undefined)	-14%	2%	.	4%[46.1 µM]	-11%[46.1 µM]	6%	?	.
O=C(/C=C/c1ccccc1Cl)c1ccccc(=O)c1O	-16%	-55%	-10%	?	?	?	?	-18%
O=C(O)CCCNC(=O)CCCNC(=O)C(c1ccccc1)c1ccccc1	1%	-3%	-2.4%	-2%	25%	-8%	8%	-6%
CC(OC(=O)C1CCN(c2ccc(C(F)(F)F)cn2)CC1)C(=O)Nc1ccc(S(N)(=O)=O)cc1 (centres undefined)	-2%	-18%	.	-3%	-1%	-15%	-3%	.
CC1CCCCN1Cc1c(O)ccc2c(=O)c(-c3ccc(Br)cc3)coc12 (centres undefined)	0%	-3%	.	.	.	-8%	0%	.
CN1CCN(CC(=O)Nc2ccc(Cl)cc2Cl)CC1	-4%	3%	8.9%	0%	16%	.	6%	-6%
N=C1C(=O)OCC1c1ccccc1NC(=O)c1ccc(F)cc1 (centres undefined)	-5%	14%	-0.9%	0%	13%	-14%	1%	-19%
CCc1ccc(S(=O)(=O)c2nnn3c2nc(N(CC)Cc2ccccc2)c2cc(Cl)ccc23)cc1	.	.	-0.6%	.	-3%[46.1 µM]	0%	.	-2%
C=CCN(c1ccccc1)S(=O)(=O)c1cccc(C(=O)NC2CCC(O)CC2)c1 (centres undefined)	-5%	.	.	18%	5%	2%	7%	.
Cc1nn(-c2ccccc2)c(C)c1NC(=O)COc1ccc([N+](=O)[O-])cc1	7%	.	.	-17%	?	?	2%	.
CC1(C)CC(=O)C(CC(=O)Nc2cc(C(F)(F)F)ccc2Cl)C(=O)C1	8%	.	.	.	-3%[46.1 µM]	-1%	0%	.
CC(=O)OCC(=O)C1CCC2C3CCC4=CC(=O)C=CC4(C)C3CCC12C (centres undefined)	-6%	.	.	1%	4%	-19%	.	.
Cc1ccc2oc(C(=O)Nc3sc4c(c3C(=O)NCc3ccccc3)CCCC4)cc(=O)c2c1	.	.	-1.3%	19%[46.1 µM]	10%[46.1 µM]	7%	.	-7%
CCOc1ccc2c(C)nc(NC3=NC(C)(C)C=C(C)N3)nc2c1	-3%	-2%	16µM*	-18%	?	-20%	8%	16µM*
CCCCSCCCNC(=O)c1ccc2c(c1)N(CC)C(=O)c1ccccc1S2=O (centres undefined)	4%	-1%	.	.	.	-15%	1%	.
Cc1ccc(C)c(NS(=O)(=O)c2cc(C(=O)NCCSC3CCCCC3)ccc2C)c1	11%	24%	-2.3%	-41%	-18%	-13%	4%	?
COc1cc(/C=C/C(=O)O)cc(S(=O)(=O)Nc2ccc3c(c2)OCO3)c1OC	164%	.	.	7%[46.1 µM]	-2%[46.1 µM]	-1%	1%	.
Cc1cccc(Cn2nc(C)n3c(cc4cc(C)ccc43)c2=O)c1	.	.	-1.2%	-2%[46.1 µM]	3%[46.1 µM]	-6%	.	12%
COC(=O)c1ccc(NC(=O)CN(c2ccc3c(c2)OCO3)S(C)(=O)=O)cc1	30%	-19%	-2.0%	16%	?	26%	-10%	-2%
CCN(CC)CCCNC(=O)c1cc(Cl)c(NC(=O)C2=C(C)OCCS2)cc1OC	-20%	0%	.	-2%[46.1 µM]	?	-5%	1%	.
Cc1ccc2cn[nH]c2c1NC(=S)NC(=O)c1ccccc1	-28%	17%	-0.1%	-4%	10%	-22%	2%	-10%
CC(C)(C)OC(=O)C1=NOC2(C=CC(=O)C=C2)C1	.	.	1.7%	?	?	.	.	1%
NS(=O)(=O)OCCCCCc1ccccc1	24%	3%	.	.	.	0%	-6%	.
COc1cccc(CNC(=O)c2nnn(CC(=O)Nc3c(C)cccc3C)c2N)c1	1%	12%	.	.	.	-22%	1%	.
COc1ccccc1N(CC(=O)Nc1ccccc1C(=O)N1CCOCC1)S(C)(=O)=O	6%	2%	.	10%	11%[46.1 µM]	-12%	2%	.
COc1ccccc1/C=C/C(=O)NCCc1ccccn1	-7%	-1%	.	?	14%[46.1 µM]	9%	11%	.
O=C(CSc1cccc[n+]1[O-])c1cc(Cl)ccc1Cl	5µM*	.	.	3%	-16%[46.1 µM]	32%[activator]	-18%	.
COc1ccccc1C(=O)N1CCc2ccccc21	2%	-2%	1.1%	4%	1%	-10%	2%	-4%
O=C(Nc1cccc(Br)c1)c1ccc(Cl)c(S(=O)(=O)N2CCOCC2)c1	-2%	-4%	-7.0%	?	?	.	-6%	15%
O=[N+]([O-])c1c(C(Cl)Cl)nn(-c2ccc(Cl)cc2)c1N1CCCCC1	-5%	-26%	-4.4%	?	-16%	?	-88%	7%
O=C(Nc1ccc(N2CCCC2)c(Cl)c1)c1cccs1	-2%	-35%	.	?	?	-6%	-3%	.
Cc1cc(C)c(OCCN(C)C)c(Cl)c1	-29%	-1%	.	16%	10%[46.1 µM]	-8%	0%	.
O=C(Nc1ccc(Cl)cc1F)c1ccccc1Br	?	-7%	-4.2%	?	?	5%	4%	1%
O=c1ccncn1C1OC(CO)C(O)C1O (centres undefined)	4%	.	.	14%	11%	-15%	.	.
O=C(Cc1noc2ccccc12)NNC(=S)Nc1ccc(Cl)cc1	-3%	.	.	3%	22%	-7%	1%	.
COc1ccc(C)cc1NC(=O)c1sc2ncnc(N3CCN(c4ccccn4)CC3)c2c1C	-8%	3%	.	.	6%[46.1 µM]	-24%	0%	.
COc1ccc(/C(C)=N/N2CCCCC2)c(O)c1	-9%	4%	.	.	.	61%[activator]	1%	.
N/C(=N\OC(=O)CCCc1ccccc1)c1ccc(Br)cc1	-12%	0%	.	.	.	-4%	-11%	.
COCC(=O)Nc1ccc(N(C)C)cc1	-15%	5%	1.8%	-4%	-3%	37%[activator]	2%	1%
Cc1cccc(N(CC(=O)NCCSCc2ccco2)S(=O)(=O)c2ccccc2)c1	2%	-6%	2.2%	?	?	-5%	-1%	11%
CC(C)(C)c1ccc2c(c1)OC(C(=O)N/N=C\c1ccccn1)CO2 (centres undefined)	?	-5%	-5.4%	-23%	14%	-24%	?	?
O=C(O)c1cccc(Nc2ncnc3sccc23)c1	-19%	14%	.	?	?	8%	1%	.
Fc1ccc(-c2noc3ncnc(N4CCCCC4)c23)cc1	.	.	7.2%	?	.	?	.	-9%
COc1ccc(CCNC(=O)CN(c2cc([N+](=O)[O-])ccc2OC)S(C)(=O)=O)cc1OC	16%	7%	.	13%	1%[46.1 µM]	-5%	2%	.
C/C(CCC1CC(C)OC1=O)=N\NC(N)=O (centres undefined)	-6%	7%	.	5%	-18%	1%	4%	.
CC1CN(S(=O)(=O)c2ccc(NC(=O)CCCN3C(=O)c4ccccc4C3=O)cc2)CC(C)O1 (centres undefined)	-9%	-1%	0.8%	-2%	-1%&-5%	-15%	-3%	?
Cc1ccc(-c2cc(C(=O)Nc3c(C)n(C)n(-c4ccccc4)c3=O)c3ccccc3n2)cc1	4%	.	.	?	?	?	-3%	.
CCS(=O)(=O)c1nc(S(=O)(=O)c2ccc(Cl)cc2)c(NCc2ccc(Cl)cc2)s1	.	.	-2.4%	5%[46.1 µM]	-5%[46.1 µM]	4%	.	?
Cc1ccc(-n2cc(C(=O)Oc3cccc(C)c3)c3ccccc3c2=O)cc1	.	.	2.0%	-18%[46.1 µM]	.	0%	.	?
Cc1ccc(CNC(=O)c2cccn2-c2nnc(N3CCCCC3)s2)cc1	.	.	-1.8%	8%[46.1 µM]	.	?	.	-5%
O=C1C=CC(=O)C2C1C1(Cl)C(Cl)=C(Cl)C2(Cl)C1(Cl)Cl (centres undefined)	-18%	.	.	?	?	?	.	.
CCCCN(C)C(=O)c1cn(C)c2ccc(S(=O)(=O)N3CCC(C)CC3)cc2c1=O	-6%	0%	-4.1%	0%[46.1 µM]	-1%&-1%[46.1 µM]	0%&-11%	0%	-12%
COc1ccc(Nc2nc(N)nc(CSc3nnc(C)s3)n2)cc1	-10%	-5%	-1.2%	6%	4%	31%[activator]	-4%	-17%
Nc1nonc1-n1nnc(C(=O)N/N=C/c2ccc(OCc3ccc(F)cc3)cc2)c1COc1ccccc1	6%	-42%	.	.	.	-13%	0%	.
O=S1(=O)C=C(SCc2ccc(Cl)c(Cl)c2)Nc2ccccc21	17%	-4%	-4.1%	?	?	-27%	8%	-2%
CCCCC(=O)Nc1ccc(C(=O)NCCc2ccc(S(N)(=O)=O)cc2)cc1	3%	11%	.	?	18%[46.1 µM]	-6%	-1%	.
CC1(C(=O)N/N=C/c2cc3c(cc2Br)OCO3)CC1(Br)Br (centres undefined)	-9%	1%	.	-1%	?	-13%	-10%	.

Two records picked at random from those above:
SMILES	RE007 growth inh	NS1 inh	Cruzain inh Det	Lassa entry inh	MARV entry inh	StopGo reporter	SARS PLP yeast	Cruzain noTriton
CC(C)(C)c1ccc2c(c1)OC(C(=O)N/N=C\c1ccccn1)CO2 (centres undefined)	?	-5%	-5.4%	-23%	14%	-24%	?	?
O=S1(=O)C=C(SCc2ccc(Cl)c(Cl)c2)Nc2ccccc21	17%	-4%	-4.1%	?	?	-27%	8%	-2%
